fixLJ activator – activators of Burkholderia fixLJ two-component system. B. multivorans fixK-promoter GFP reporter, 18 h; hits give high values. z-score (no concentration beside the values). actives 0.3% (n = 29,000). AID 1918990;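 active = replicate mean overnight rise in green fluorescent reporter signal, 3 or more SD over negative controls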;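 note: score is relative to vehicle wells of the plate; 300 nL library stock went into each well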
The depositor's hits bear a star; & = joins results of further samples.

SMILES	fixLJ activator
COc1ccc(N2CCN(C(=O)c3cc4c(s3)-c3ccccc3OC4)CC2)cc1	-1.1
Cc1coc2cc3oc(=O)c(CCC(=O)N4CCCCC4)c(C)c3cc12	-2.5
CCc1ccc2nc(C)cc(C(=O)NC(c3ncnn3C)C3CC3)c2c1 (stereo not given)	-2.4
Cc1ccc(Nc2c(-c3ccc(C)s3)nc3ccccn23)cc1	0.87
CC(C)c1nnc(C(C)NC(=O)c2cccc(N3CCNC3=O)c2)o1 (stereo not given)	0.54
CCCCN1CCc2[nH]cnc2C12CCN(C(=O)c1ccc(C)s1)CC2	0.78
COc1ccccc1N1CCN(S(=O)(=O)c2c(C)sc3ncn(CC(=O)NCCN(C)C)c(=O)c23)CC1	-1.1
CCOc1ccc(OCC)c(NC(=O)c2nnn(CC(=O)Nc3cc(Cl)ccc3OC)c2N)c1	-0.41
COc1ccc(/C=C/C(=O)Nc2ccc(Cl)cc2Cl)cc1	0.84
CO[C@@]1(NC(=O)Cc2cccs2)C(=O)N2C(C(=O)O)=C(COC(N)=O)CS[C@@H]21	-0.26
CCOc1ccc(C(=O)c2cn(CC(=O)Nc3ccc4c(c3)OCO4)c3ccc(OCC)cc3c2=O)cc1	-1.2
COc1cccc(CNC(=O)c2nn(-c3ccc(C)cc3)c(=O)c3c2c2ccccc2n3C)c1	0.08

Reprinted from the part before: 4 entries; new compounds follow.
SMILES	fixLJ activator
COc1ccc(/C=C/C(=O)Nc2ccc(Cl)cc2Cl)cc1	0.84
CO[C@@]1(NC(=O)Cc2cccs2)C(=O)N2C(C(=O)O)=C(COC(N)=O)CS[C@@H]21	-0.26
CCOc1ccc(C(=O)c2cn(CC(=O)Nc3ccc4c(c3)OCO4)c3ccc(OCC)cc3c2=O)cc1	-1.2
COc1cccc(CNC(=O)c2nn(-c3ccc(C)cc3)c(=O)c3c2c2ccccc2n3C)c1	0.08
COc1cc(C)cc(OC)c1C(C(=O)O)N1CCCN(C)CC1 (stereo not given)	0.4
COc1cc(CNCCSc2nnnn2C)ccc1OCc1ccc(Cl)cc1Cl	-1.9
Cc1ccc(CNC(=O)c2ccc3c(=O)n(-c4ccccc4)c(=O)[nH]c3c2)cc1	0.57
CC(C)c1nc(CCNC(=O)C2(C)CC23CCNCC3)cs1 (stereo not given)	-2.2
CC(=O)NCCCC(=O)NC1COCC1Cc1ccncc1 (stereo not given)	-0.77
CCCCc1ncc(CNC2CCCN(C(=O)c3ccco3)C2)[nH]1 (stereo not given)	-1.9
Cc1oc2c(C)c3oc(=O)c(CCC(=O)N4CCCCC4)c(C)c3cc2c1C	-0.83
O=C(CC(NCc1cccnc1)C(=O)O)Nc1ccc(F)cc1 (stereo not given)	-0.16
NS(=O)(=O)c1ccc(CNC(=O)C2CCCN(Cc3ccco3)C2)cc1 (stereo not given)	0.54
O=C(c1cccc(-c2ncn[nH]2)c1)N1CCc2c([nH]c3ccccc23)C1	-1
Cc1ccc(-n2c3nc(=O)[nH]c(=O)c-3cc3c(Cl)cccc32)cc1	0.11
Cc1ccc(S(=O)(=O)c2nc(-c3ccco3)oc2SCc2ccc(F)cc2)cc1	0.88
Cc1cc(C)cc(NC(=O)CSc2oc(-c3cccs3)nc2S(=O)(=O)c2ccc(Br)cc2)c1	-0.08
Cc1ccc(-n2nc(C(=O)Nc3ccc(Cl)cn3)c3c4ccccc4n(C)c3c2=O)cc1	0.67
CCCNC(=O)CCc1c(C)nc2nc(CNC(=O)c3ccccc3)nn2c1C	-1.4
CCOC(=O)CCn1nc(C)c2c(C)n(-c3ccccc3)nc2c1=O	0.57
COc1ccc(OC)c(NC(=O)Cn2c(=O)n(-c3cccc(C)c3)c(=O)c3c2c2cc(C)ccc2n3C)c1	-0.84
CCCCCSc1nnc2c(n1)OC(CC)Nc1ccc(Br)cc1-2 (stereo not given)	-0.3
Cc1ccc(OCCCCn2cnc3ccccc32)cc1	-3.2
Cc1ccc(Cl)cc1NC(=O)c1nnn(Cc2ccccc2)c1N	-0.93
CCc1nccn1CC(C)NCc1nc(-c2ccccc2F)no1 (stereo not given)	-1.9
Cc1ccc(NC(=O)c2c(NC(=O)c3ccccc3Cl)sc3c2CCC3)cc1	-0.44
CCOC(=O)c1ccc(-c2ccc(/C=C(\C#N)C(=O)Nc3ccc(C)cc3OC)o2)cc1	0.73
Cc1cc(N2CCN(Cc3ccc(-c4ccn[nH]4)o3)CC2)nc(-c2ccccc2O)n1	-0.17

Pulled one by one from the list above (2):
SMILES	fixLJ activator
CCCCCSc1nnc2c(n1)OC(CC)Nc1ccc(Br)cc1-2 (stereo not given)	-0.3
Cc1cc(C)cc(NC(=O)CSc2oc(-c3cccs3)nc2S(=O)(=O)c2ccc(Br)cc2)c1	-0.08

The listing picks up; the 4 compounds before the break are reprinted first.
SMILES	fixLJ activator
CCc1nccn1CC(C)NCc1nc(-c2ccccc2F)no1 (stereo not given)	-1.9
Cc1ccc(NC(=O)c2c(NC(=O)c3ccccc3Cl)sc3c2CCC3)cc1	-0.44
CCOC(=O)c1ccc(-c2ccc(/C=C(\C#N)C(=O)Nc3ccc(C)cc3OC)o2)cc1	0.73
Cc1cc(N2CCN(Cc3ccc(-c4ccn[nH]4)o3)CC2)nc(-c2ccccc2O)n1	-0.17
O=C(Nc1ccc(Cl)cc1)c1cc2c(Cl)nc3ccccc3c2s1	-0.57
CCOc1ccc(N(CC)C(=O)c2cc3c(=O)oc4ccccc4c3s2)cc1	-0.27
O=C(Cn1c(=O)n(CCCS(=O)(=O)C2CCCCC2)c(=O)c2ccccc21)Nc1ccccc1C(F)(F)F	-2
CCOCCCn1c(=N)c(S(=O)(=O)c2ccc(Cl)cc2)cc2c(=O)n3cccc(C)c3nc21	-1.8
COc1ccc(-n2c(SC)nc3sc4c(c3c2=O)CCN(C(C)=O)C4)cc1	3.5
Brc1ccc(-c2csc(-c3nc(-c4ccc(Br)s4)cs3)n2)cc1	-0.88
COc1cccc(-c2nc(S(=O)(=O)c3ccccc3)c(NCc3ccccc3)o2)c1	-1.4
COc1ccc(S(=O)(=O)N(CC(=O)Nc2cc(C)ccc2OC)Cc2ccccc2)cc1	0.2
Cc1cccc(C(=O)NC2(C(F)(F)F)N=C(c3ccccc3)N(C3CCCCC3)C2=O)c1 (stereo not given)	-1.2
CCOC(=O)c1cc(OC(=O)c2cc(OC)cc(OC)c2)n(-c2ccccc2)n1	-2.4
Cc1ccc(Cl)cc1N1CCN(C(=O)CN2C(=O)COc3ccc(S(=O)(=O)N4CCC(C)CC4)cc32)CC1	0.07
Cc1ccc(S(=O)(=O)NC(=O)NN2CCCCCC2)cc1	-1.3&0.08
Cn1ccnc1SCCNC(=O)c1ccc(C#CC(C)(C)O)cc1	-0.78
COc1ccc(Br)cc1CNC(=O)c1nn(-c2ccc(C)cc2)c(=O)c2c1c1ccccc1n2C	-0.2
CCc1ccc(C2c3c(-c4ccccc4O)n[nH]c3C(=O)N2Cc2ccncc2)cc1 (stereo not given)	-2.4
CCOc1ccc(S(=O)(=O)c2c[nH]c3ccccc3c2=O)cc1	-1.7
COC(=O)c1ccc(NC(=O)CC2Nc3cc(C)c(C)cc3NC2=O)cc1 (stereo not given)	-1.5
CCOC(=O)c1c(NC(C)=O)c2c3c(sc2n1Cc1cccc(Cl)c1)CCCC3	-1.3
Cc1nn(C)c(C)c1CN(C)c1cc(C2CC(N)C2)nc(N)n1 (stereo not given)	-0.34
COc1ccccc1N(CC(=O)NCCSCc1ccccc1Cl)S(C)(=O)=O	-0.83
NC1(C(=O)N2CCC3(CC2)CN(CCc2ccccc2)C(=O)O3)CCNCC1	-0.23
COc1ccc(C(C)C)cc1S(=O)(=O)N1CCC(O)C(C(=O)O)C1 (stereo not given)	-0.43
CC1CN(C(=O)Nc2ccc(C(=O)NCc3cccc(F)c3)cc2)c2ccccc2S1 (stereo not given)	-2
CCC1CN(C(=O)c2cnn3cc(C)cnc23)CCC(=O)N1Cc1ccccc1 (stereo not given)	-0.75
CCC(C)NC(=O)CN1C(=O)COc2ccc(S(=O)(=O)N3CCOCC3)cc21 (stereo not given)	-0.24
Cc1ccccc1S(=O)(=O)Cc1ccc(C(=O)N2CCN(c3cccc(Cl)c3)CC2)o1	0.37
COc1ccccc1Oc1ccc(NC(=O)C(C)NC(C)=O)cn1 (stereo not given)	-2.8
CC(C)c1ccc(C(C)NC(=O)N2CCN(Cc3nccn3C)CC2)cc1 (stereo not given)	0.61
Cc1ccc(Cl)cc1NC(=O)C1CCCN(S(=O)(=O)c2c(C)noc2/C=C/N(C)C)C1 (stereo not given)	-0.7
CN(C)C(=O)CN1CCCN(C(=O)c2cc(-c3cccn3C)n[nH]2)CC1	0.68
COc1ccccc1NC(=O)CN(C)S(=O)(=O)c1ccc2c(c1)c(=O)n(C)c(=O)n2C	0.61
Cc1ccc(OCC(=O)N(Cc2ccc(N(C)C)cc2)CC2CCCO2)cc1C (stereo not given)	-1.4
CC(NC(=O)c1cccc(-n2cnnc2)c1)c1nc(-c2ccccn2)no1 (stereo not given)	0.72
COC(=O)c1ccccc1NS(=O)(=O)c1ccc2c(c1)CCCN2C(C)=O	-1.3
COc1ccc(C2C(C(=O)Nc3ccccc3)=C(C)Nc3nc(-c4ccccc4)nn32)c(OC)c1 (stereo not given)	-3.5
COc1ccc(C2NC(=O)NC(C)=C2C(=O)Nc2ccccc2)cc1OC (stereo not given)	-0.95
O=C(c1cccc(S(=O)(=O)NCC2CCOC2)c1)N1CCSCC1 (stereo not given)	0.01
CC1=C(C(=O)Nc2ccc(C)cc2C)C(c2cccs2)n2nc(SCc3cccc(C)c3)nc2N1 (stereo not given)	-2.9
CCOc1ccc(CCNC(=O)Cn2nnc(-c3ccc(OC)c(OC)c3)n2)cc1OCC	-1.5
COCCNC(=O)C1CCCN(C2CCN(C(=O)C=Cc3ccccc3)CC2)C1 (stereo not given)	-4
O=C(NCc1cnn2cccnc12)Nc1ccc(OCC2CCCCO2)cc1 (stereo not given)	-0.1
CCc1ccc(-c2nc(SCC(=O)NCC3CCCO3)c(-c3ccc(C)cc3)[nH]2)cc1 (stereo not given)	-1.2
O=c1c2cnn(-c3ccc(F)cc3)c2ncn1Cc1ccccc1Cl	0.04
CC1(C)S[C@@H]2[C@H](NC(=O)[C@H](N)c3ccccc3)C(=O)N2[C@H]1C(=O)O	-0.95&0.57
CCCSCCCNC(=O)C1CCN(C(=O)c2cc3sccc3n2C)CC1	-0.62
CCOC(=O)c1sc(NC(=O)C(C)Oc2ccc(OC)cc2)c(C(=O)OCC)c1C (stereo not given)	-0.65
CCc1ccc(S(=O)(=O)Nc2cc3c(C(=O)OCc4ccccc4)c(C)oc3c3ccccc23)cc1	-1.8
CCc1ccc(CNC(=O)Cn2c(-c3cccs3)cc3cc(F)ccc32)cc1	1.8

In a second layout: entries from further up
structure | fixLJ activator
CCOc1ccc(CCNC(=O)Cn2nnc(-c3ccc(OC)c(OC)c3)n2)cc1OCC | -1.5
COCCNC(=O)C1CCCN(C2CCN(C(=O)C=Cc3ccccc3)CC2)C1 (stereo not given) | -4
O=C(NCc1cnn2cccnc12)Nc1ccc(OCC2CCCCO2)cc1 (stereo not given) | -0.1

Continued:
SMILES	fixLJ activator
O=C(NCc1cccs1)c1nn(-c2ccccc2F)nc1CO	-0.76
COc1cccc2c1cc1c(=O)n(CC(=O)N3CCN(c4ccc(F)cc4)CC3)nc(C)n12	-0.65
CCCN(Cc1nccn1C)C(=O)NCc1noc(-c2cccs2)n1	-2.8
Cc1cccc(C(=O)Nc2ccc(C)c(NC(=O)CN(C)C)c2)n1	0.51
COC(=O)c1ccc(NC(=O)CSc2nc3ccc(OC)cc3[nH]2)cc1	1
Cc1ccc(-c2nc3cc(NC(=O)Cc4ccc(Cl)cc4)ccc3o2)cc1	-1.5
CCN(CC)CCNC(=O)C1CCN(c2cc(C)nc3c(-c4ccc(Cl)cc4)c(C)nn23)CC1	-0.95
CCOc1ncccc1C(=O)N1CC2CN(C(=O)c3n[nH]c4c3CCCC4)CCC21 (stereo not given)	-0.36
CCCOc1ccc(/C=C/C(=O)Nc2sc(C)c(C)c2C(=O)OCC)cc1OC	-0.76
CCOc1ccc(-c2nonc2NC(=O)c2ccc(C)cc2)cc1OCC	-0.77
Cc1cc(C)cc(NC(=O)CCS(=O)(=O)c2cccc3nsnc23)c1	-0.93
Cc1ccc(OCc2nc(-c3ccc(C(=O)N4CCN(c5cc(Cl)ccc5C)CC4)cc3)oc2C)cc1	0.16
CCCn1c(SCc2nc(-c3ccccc3OCC)no2)nnc1-c1ccc(Cl)cc1	-2.4
CCCC(=O)Nc1ccc2oc(-c3ccc(O)c(Br)c3)nc2c1	0.06
CC(C)c1cc(C(=O)N(Cc2ccco2)Cc2cccs2)nc2ncnn12	-1.3
COc1ccc(CCNC(=O)CN(c2ccccc2)S(=O)(=O)N(C)C)cc1	-0.64
Nc1ncc(CN2CCCN(C(=O)Cc3ccc(F)cc3)CC2)cn1	0.25
CCOc1ccc(-n2nc3ccc(NC(=O)Cc4ccccc4)cc3n2)cc1	0.34
Cc1cc(C)cc(NC(=O)Cn2c(=O)n(CC(=O)NCCc3ccccc3)c(=O)c3ccccc32)c1	0.66
CCSc1ncc(Cl)c(C(=O)N(Cc2ccccc2)Cc2ccco2)n1	1.9
O=C(c1cnc2ccccc2n1)N1CCC(O)(CN2CCCC2)CC1	-1
COc1ccc(C2CC(=O)c3c([nH]c(C(=O)OCCOc4ccccc4)c3C)C2)cc1OC (stereo not given)	-0.71
O=C(c1cc(COc2cccc(F)c2)[nH]n1)N1CC(N2CCCCC2)C1	0.69
CCOc1ccc(CCNC(=O)c2ccc(Nc3nc4ccccc4n4nnnc34)cc2)cc1OCC	0.76
Clc1ccc(-c2csc(=Nc3ccccc3)n2Cc2ccc3c(c2)OCO3)cc1	0.71
O=C(Nc1ccc2oc(-c3cccc(F)c3)nc2c1)c1ccc2ccccc2c1	0.7
Cc1cccc(Cn2c(=O)n(CCCC(=O)NCc3ccccc3Cl)c(=O)c3ccccc32)c1	1.6
CCOc1ccc(NC(=O)C2CCCN(S(=O)(=O)c3c(C)noc3/C=C/N(C)C)C2)cc1 (stereo not given)	0.13
CCc1noc(CN2CC[C@]3(OC)CCC(OCC4CC4)CC23)n1 (stereo not given in full)	-0.9

Source: PubChem

Not all compounds are listed. The share of hits here may be higher or lower than overall.
